GALR2 ag: activates the human galanin receptor 2; actives 0.48% (n = 140,000); O43603; GALR2-expressing cells, agonist activation read-out; activation, %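 (tested at 5 µM)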;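 active means above mean plus 3 SD of all compounds, about 5% in these data, not always enough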;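 further: 0% = vehicle buffer wells and 100% = reference agonist at full effect; tested in CHO reporter cells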
Target sequence (O43603 whole entry, looked up): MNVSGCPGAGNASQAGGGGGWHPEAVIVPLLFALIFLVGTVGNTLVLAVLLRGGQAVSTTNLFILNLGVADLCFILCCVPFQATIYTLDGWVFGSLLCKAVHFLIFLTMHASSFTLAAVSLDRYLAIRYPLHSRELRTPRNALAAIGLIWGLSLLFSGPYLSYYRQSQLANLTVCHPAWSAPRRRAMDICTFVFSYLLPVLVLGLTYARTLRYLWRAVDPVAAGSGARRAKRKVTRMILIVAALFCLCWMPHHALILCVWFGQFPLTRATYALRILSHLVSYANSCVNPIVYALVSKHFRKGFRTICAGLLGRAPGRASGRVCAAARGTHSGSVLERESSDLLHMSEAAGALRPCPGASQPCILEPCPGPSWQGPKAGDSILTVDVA
INS promoter inh: TRM-6 insulin promoter activity inhibition. TRM-6 cells (human fetal islet line), insulin promoter-eGFP reporter, imaging; reporter expression induced with tamoxifen. inhibition, % at 2 µM. actives 0.9% (n = 130,000);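 active means inhibition above the mean plus 3 SD, with well images judged a real hit on visual review, cut at about 60% in these data, passing the limit was not always enough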
PKD1 inh: blocks activity of human protein kinase D1 | PKD1 kinase fluorescence polarization assay | inhibition, %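 (about 10 µM by stock and volumes)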 | Q15139 | AID 797 | actives 0.056% (n = 200,000);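 active means inhibition of 50% or more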;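 further: controls were vehicle for no effect and a reference inhibitor for full effect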
RGS16-Gao HTS: modulates binding between human RGS16 and Galphao | O15492+P09471 | actives 0.38% (n = 220,000) | bead-based flow cytometry RGS16-Galphao binding, fluorescence; actives lie on both sides | binding response (% of control), % at 10 µM | AID 1441;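 active means below 25% or above 175%, edge rows of some plates excepted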;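 further: Galphao activated by GDP with aluminum fluoride before binding; 100% = wells without compound and 0% = beads without RGS; some results beyond the cut were filed as inactive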
Target sequence (O15492 whole entry, looked up): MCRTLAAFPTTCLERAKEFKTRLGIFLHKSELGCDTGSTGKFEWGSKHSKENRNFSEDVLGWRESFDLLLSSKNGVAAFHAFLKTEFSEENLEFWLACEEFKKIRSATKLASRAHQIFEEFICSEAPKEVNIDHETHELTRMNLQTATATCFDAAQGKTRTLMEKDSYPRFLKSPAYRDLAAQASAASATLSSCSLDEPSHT
Target sequence (P09471 whole entry, looked up): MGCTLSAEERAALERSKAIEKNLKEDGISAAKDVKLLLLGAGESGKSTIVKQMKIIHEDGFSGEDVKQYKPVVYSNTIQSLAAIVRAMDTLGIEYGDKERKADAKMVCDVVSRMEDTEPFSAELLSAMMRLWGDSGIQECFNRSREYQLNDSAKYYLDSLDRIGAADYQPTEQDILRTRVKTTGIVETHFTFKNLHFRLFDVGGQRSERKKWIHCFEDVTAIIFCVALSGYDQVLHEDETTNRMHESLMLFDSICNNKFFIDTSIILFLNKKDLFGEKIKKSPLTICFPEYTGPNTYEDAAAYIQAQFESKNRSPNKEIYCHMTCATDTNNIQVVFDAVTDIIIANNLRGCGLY
HSV replic up: HSV replication enhancement | AID 1956 | HSV replication augmentation in cells, fold increase | maximum fold increase | actives 0.005% (n = 220,000);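 active means peak rise of 1.5-fold or more in the series; tested in PC3 cells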;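 further: first round at 10 µM; read as green reporter fluorescence; hits show the peak of a series up to 25 µM; 1 = signal of infected wells without compound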
INS promoter inh cell count: second read-out of INS promoter inh, no call of its own (marks repeat the call); normalized cell count, %; measured here: cell count, toxicity; reference of the scale not given here;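 cells exposed to compound for 48 h; stained nuclei by imaging scaled within each plate; lower means fewer cells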
HSV replic up primary fold: second read-out of HSV replic up, no call of its own (marks repeat the call); fold increase; compound at 10 µM; measured here: primary screen fold increase 10 uM; tested in PC3 cells;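 GFP signal in the first replicate; 1 = infected wells without compound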
Numbers without * were called inactive; i = inactive; · = not tested or not shown.

Molecule	HSV replic up	GALR2 ag	INS promoter inh cell count	RGS16-Gao HTS	PKD1 inh	INS promoter inh	HSV replic up primary fold
O=C(NCCCN1CCN(c2cccc(Cl)c2)CC1)C1CCC(=O)N1Cc1ccccc1Cl (centres undefined)	·	-0.6	·	102	0	·	·
COc1ccccc1-n1c(SCC(=O)N2CCOCC2)nc(O)c(Cc2ccccc2)c1=O	i	-1.0	·	89	3	·	1
O=C(O)CSc1nnc(COc2cccc3cccnc23)n1-c1ccc(Cl)cc1	i	·	·	100	-1	·	1
CN(C)C(=O)c1c2c(nc3ccccc13)CCCC2	i	·	·	101	-2	·	0.98
CCN1C(=O)N(c2cccc3ccccc23)C(C)=CC1(C)C	i	-0.7	133	100	-4	-18	0.97
Cc1ccc(NC(=S)N(Cc2ccc(Cl)cc2)Cc2ccc(C(=O)O)cc2)cc1Cl	i	·	47	101	-2	14	0.7
CCOC(=O)/C(C#N)=C/c1cn(CCC(=O)O)nc1-c1ccc(F)cc1	i	·	·	98	-5	·	1
CNC(=O)NC(=O)C(C)OC(=O)CCCSc1nc2ccccc2s1 (centres undefined)	i	-1.1	76	71	-9	5	1
COc1ccc2nc(Nc3nc(CSc4nc5ccccc5[nH]4)cc(=O)[nH]3)nc(C)c2c1	i	0.8	119	102	-4	-28	0.55
CSc1nc2ccccc2n1CC(=O)Nc1c(C)n(C)n(-c2ccccc2)c1=O	i	-0.4	·	102	-15	·	1.1
COc1cc(/C=N/NC(=O)C[n+]2ccccc2)cc(OC)c1OC(C)=O	i	·	·	86	·	·	1
CCOC(=O)/C(C#N)=C/c1c(OCC)n(CC)c2ccccc12	i	0.7	92	100	5	-17	0.9
COc1ccc(/C=N/NC(=O)c2ccn[nH]2)cc1COc1ccc(Cl)cc1	i	-1.9	·	104	3	·	0.88
CCOc1ccc(Nc2nc(N)nc(CN(C)C3CCCCC3)n2)cc1	i	-0.9	·	102	3	·	0.83
N#CCSc1nnc(-c2ccc3c(c2)OCO3)o1	i	·	·	100	-2	·	1.1

Additional compounds:
Molecule	HSV replic up	GALR2 ag	INS promoter inh cell count	RGS16-Gao HTS	PKD1 inh	INS promoter inh	HSV replic up primary fold
Cc1onc(-c2ccccc2)c1C(=O)Nc1nc(-c2ccc(F)c(F)c2)cs1	i	0.0	142	114	-10	-55	1.1
CC(C)(C)C1CCc2c(sc(NC(=O)C3CC=CCC3C(=O)O)c2C#N)C1 (centres undefined)	i	-2.0	116	102	-3	-4	0.92
CCOC(=O)c1ccc(N/N=C/c2cc(Br)cc([N+](=O)[O-])c2O)cc1	i	·	108	98	-3	0	1
CCN1CCN(c2nc(S(=O)(=O)c3ccc(C)cc3)c(Cl)s2)CC1	i	·	63	111	2	18	0.94
CCC1(CC)NC(=O)N(CC(=O)Nc2ccc(S(=O)(=O)N3CCOCC3)cc2)C1=O	i	·	145	103	-2	-11	0.82
CC(C)NC(=O)CC1C(=O)NCCN1CC(c1ccccc1)c1ccccc1 (centres undefined)	i	·	·	98	-6	·	1.1
CC(C)C(C)NC(=O)CN1C(=O)NC2(CCCc3ccccc32)C1=O (centres undefined)	i	·	·	104	-4	·	0.97
CC1(C)CC(N2CCCC2)=CC(=[N+]2CCCC2)C1	i	-1.9	100	103	-1	25	1
CCOc1ncccc1C(=O)OCc1ccc(C(=O)OC)o1	i	-1.3	·	102	-5	·	0.77
Cc1nc2sc3c(c2c2nc(-c4ccco4)nn12)CCCC3	i	1.6	·	106	-2	·	0.8
CC(CCn1cccn1)NC(=O)c1cc(COc2ccc(F)cc2F)on1 (centres undefined)	i	·	·	103	3	·	1.3
O=S(=O)(CCSc1ccc(C(F)(F)F)cn1)c1ccc(Cl)cc1	i	·	·	98	·	·	0.9
O=C(NC1CCCC1)C1CCCN(S(=O)(=O)c2ccc(-n3cnnn3)cc2)C1 (centres undefined)	i	-1.0	·	-20	-11	·	0.92
Cc1ccc(CNC(=O)Cn2ccc3ccccc3c2=O)o1	i	-1.4	·	95	4	·	1
CCOC(=O)C(C(C)=O)c1c(Br)c(O)c(O)c2c(C(=O)c3ccc(C)cc3)coc12 (centres undefined)	i	-0.4	·	84	-5	·	0.8

In a second layout: entries from further up.
Under each structure – HSV replic up | GALR2 ag | INS promoter inh cell count | RGS16-Gao HTS | PKD1 inh | INS promoter inh | HSV replic up primary fold
> Cc1nc2sc3c(c2c2nc(-c4ccco4)nn12)CCCC3
  i | 1.6 | · | 106 | -2 | · | 0.8
> CC(CCn1cccn1)NC(=O)c1cc(COc2ccc(F)cc2F)on1 (centres undefined)
  i | · | · | 103 | 3 | · | 1.3
> O=S(=O)(CCSc1ccc(C(F)(F)F)cn1)c1ccc(Cl)cc1
  i | · | · | 98 | · | · | 0.9
> O=C(NC1CCCC1)C1CCCN(S(=O)(=O)c2ccc(-n3cnnn3)cc2)C1 (centres undefined)
  i | -1.0 | · | -20 | -11 | · | 0.92

Going on with the list:
Molecule	HSV replic up	GALR2 ag	INS promoter inh cell count	RGS16-Gao HTS	PKD1 inh	INS promoter inh	HSV replic up primary fold
CCCc1cc(=O)[nH]c(Nc2ccc(O)cc2)n1	i	-3.7	96	104	-2	-8	0.91
COc1cc(CNCCSc2nnnn2C)cc(Br)c1OCc1ccccc1	i	·	·	102	-1	·	0.96
Cc1ccc(-c2nnn(CCC(=O)NC(C)(C)C)n2)cc1	i	-0.8	133	81	5	31	0.87
NC(=O)c1cccc2c(=O)oc3ccccc3c12	i	-2.5	139	104	-2	-19	0.93
N#CCn1c2ccccc2c2nc3ccccc3nc21	i	·	126	112	3	47	0.94
Nn1c(SCC(=O)Nc2ccc(Oc3ccccc3)cc2)nnc1C1CC1	i	-1.0	120	98	0	-10	0.98
C(=N\n1cnnc1SCc1ccccc1)/c1ccco1	i	-0.5	70	102	-11	-6	0.97
CCOC(=O)C1=C(CN2CCN(C(=O)OCC)CC2)NC(=O)NC1c1ccc2c(c1)OCO2 (centres undefined)	i	·	183	102	-4	-71	0.98
O=C(c1ccc(F)cc1)[C@@H]1[C@@H](C(=O)c2ccccc2)[C@@]2(C(=O)Nc3ccccc32)[C@H]2c3ccccc3C=CN12	i	-0.8	·	99	9	·	1.1
O=C(CSc1oc(-c2ccccc2)nc1S(=O)(=O)c1ccc(F)cc1)NCC1CCCO1 (centres undefined)	i	-0.2	87	106	-7	25	0.88
CC(C)(C)OC(=O)NC(CC(=O)OCc1ccccc1)C(=O)O (centres undefined)	i	·	·	100	·	·	0.98
Cn1c(CN2CCOCC2)c(C#N)c2ccccc21	i	-2.0	100	97	3	16	0.95
Cc1ccc(S(=O)(=O)NNC(=O)c2ccoc2C)cc1	i	·	·	100	·	·	1
CN(c1ccc(C(=O)NCc2ccc3c(c2)OCO3)cc1)S(C)(=O)=O	i	-1.1	69	98	-4	21	1.2
COc1ccc(/C=N/Nc2ccccn2)c(OC)c1OC	i	·	·	99	0	·	0.82

Carrying on.
Molecule	HSV replic up	GALR2 ag	INS promoter inh cell count	RGS16-Gao HTS	PKD1 inh	INS promoter inh	HSV replic up primary fold
CC(=O)N1CCc2cc(Br)cc(S(=O)(=O)N3CCc4ccccc43)c21	i	·	·	96	-1	·	0.89
C(=C\CSc1ncn[nH]1)/CSc1ncn[nH]1	i	2.1	29	104	2	-50	0.9
NS(=O)(=O)c1ccc(NC(=O)c2c(F)cccc2Cl)cc1	i	·	·	90	·	·	1.1
Cc1ccc(/C(=C\CN2CCCC2)c2ccccn2)cc1	i	·	·	101	·	·	1
Cc1cc(C)c2nc(-c3cccnc3)cc(C(=O)Nc3ccc(S(=O)(=O)Nc4onc(C)c4C)cc3)c2c1	i	·	123	101	5	0	0.94
O=C(CN1CCOCC1)Nc1ccc(NC(=O)CN2CCOCC2)c(Cl)c1	i	-1.6	121	103	-5	19	0.91
COc1cccc(C2=NOC(C(=O)N3CCN(C(=O)c4ccco4)CC3)C2)c1 (centres undefined)	i	-1.9	·	97	-8	·	1.1
O=C(Nc1ccc(C(=O)O)cc1)/C(=C/c1ccc2c(c1)OCO2)NC(=O)c1cccc(Br)c1	i	·	89	101	-6	-55	1
Cc1ccc(NC(=O)COC(=O)C2=COCCO2)cc1	i	-1.3	99	103	18	3	0.93
CSc1nnc(-c2ccccc2Cl)n1N	i	-2.5	107	67	0	32	0.9
Cc1ccc(/C=C/C(=O)NCc2ccccn2)o1	i	-0.3	95*	109	-10	66*	1
Cc1ccc(S(=O)(=O)N2CC=C(c3ccc(F)cc3)CC2)cc1	i	0.1	96	136	4	-10	0.98
CCS(=O)(=O)N1CCCC(C(=O)NCCN2CCC(Cc3ccccc3)CC2)C1 (centres undefined)	·	-1.1	103	96	9	-31	·
Nc1nnc(SCC(=O)NCc2ccc3c(c2)OCO3)s1	i	-2.1	105	109	0	8	0.87
CCOC(=O)CSc1nnc(-c2ccco2)n1-c1ccc(C)cc1	i	0.6	·	37	-7	·	0.97

(further entries)
Molecule	HSV replic up	GALR2 ag	INS promoter inh cell count	RGS16-Gao HTS	PKD1 inh	INS promoter inh	HSV replic up primary fold
O=C(CC1Nc2ccccc2NC1=O)NCc1cccnc1 (centres undefined)	·	-0.2	92	69	-4	36	·
CCOC(=O)c1sc(NC(=O)CSc2n[nH]c(-c3ccc(Cl)cc3Cl)n2)c(C#N)c1C	i	-1.3	132	101	0	-46	0.99
COc1cc2[nH]c(=S)nc(NCC3CCCO3)c2cc1OC (centres undefined)	i	-2.6	·	95	-3	·	1.1
O=C(CSC1=NCCS1)N1CCc2ccccc21	i	2.8	106	106	-3	60	0.9
O=C(O)c1cccc(NC2=C(Cl)C(=O)c3ccccc3C2=O)c1	i	·	79	94	1	9	1
Cc1ccc(Cn2cccc(-c3nc4ccccc4s3)c2=O)cc1	i	65*	68	98	-10	17	0.95
CCOC(=O)c1cc2occc2n1Cc1c(F)cccc1Cl	i	-2.1	207	101	-3	-43	0.96
Cc1ccc(SCC(=O)NN2C(=O)c3ccccc3C2=O)cc1	i	·	119	99	3	-8	0.99
Cc1nn(C)cc1CN(C)Cc1ccc(OCC(O)CN2CCCCC2)cc1 (centres undefined)	i	·	·	102	0	·	0.92
CN(/C=C/C(=O)C(F)(F)C(F)(F)F)Cc1ccccc1	i	-2.9	83	99	0	25	0.9
CCCCN(CC)C(=O)CSc1cc(=O)n(C)c2ccccc12	i	-0.7	116	101	4	11	1
CC1(C)CC2(CC(C)(C(=O)CSc3nc4ccccc4s3)OC2=O)C(=O)O1 (centres undefined)	i	-0.6	90	99	-7	0	0.96
COc1ccc(N(C)C(=O)CCS(=O)(=O)c2cccc3nonc23)c(OC)c1	i	-1.9	135	106	-3	-3	0.96
Cc1ccc(/C=C/C(=O)Nc2cccc3ncccc23)o1	i	-2.7	120	84	6	-40	1.1
CCOc1cc(/C=C(\CC(=O)O)c2nc3ccccc3s2)ccc1OC	i	·	134	103	-6	33	1

5 entries out of the list, sorted by length of the SMILES, lowest first:
Molecule	HSV replic up	GALR2 ag	INS promoter inh cell count	RGS16-Gao HTS	PKD1 inh	INS promoter inh	HSV replic up primary fold
NC(=O)c1cccc2c(=O)oc3ccccc3c12	i	-2.5	139	104	-2	-19	0.93
O=C(CC1Nc2ccccc2NC1=O)NCc1cccnc1 (centres undefined)	·	-0.2	92	69	-4	36	·
CCOc1ccc(Nc2nc(N)nc(CN(C)C3CCCCC3)n2)cc1	i	-0.9	·	102	3	·	0.83
CN(c1ccc(C(=O)NCc2ccc3c(c2)OCO3)cc1)S(C)(=O)=O	i	-1.1	69	98	-4	21	1.2
CCOC(=O)c1sc(NC(=O)CSc2n[nH]c(-c3ccc(Cl)cc3Cl)n2)c(C#N)c1C	i	-1.3	132	101	0	-46	0.99

Next part:
Molecule	HSV replic up	GALR2 ag	INS promoter inh cell count	RGS16-Gao HTS	PKD1 inh	INS promoter inh	HSV replic up primary fold
O=C(CSc1nncn1-c1ccccn1)Nc1cccc(Cl)c1	i	·	89	106	-4	50	0.92
Cc1cccc2nc(-c3ccco3)c(Nc3ccc4c(c3)OCCO4)n12	i	·	121	105	-4	0	0.9
CC(NCC1COc2ccccc2O1)C(=O)NCc1ccccc1 (centres undefined)	i	·	111	100	6	-33	1
Cc1ccccc1-n1nc2c(c1NC(=O)c1cc3ccccc3oc1=O)CS(=O)(=O)C2	i	-0.6	37	108	-7	9	0.87
CCOc1ccccc1N1CCN(S(=O)(=O)c2ccc(F)c(F)c2)CC1	i	-2.2	106	103	-4	-73	0.81
